TRPV1 PAM: HTS Assay for Compounds that Act as Potentiators of the Vanilloid Receptor 1; Transient receptor potential cation channel subfamily V member 1 (Homo sapiens), Q8NER1; TRPV1-expressing cells, Fluo-8 calcium influx, capsaicin EC20 potentiation; host cell line not named in the record; control for the full effect not named in the record; potentiation, % at 8.33 µM; 320,000 compounds, 0.02% hits; AID 540277, 2011; active means potentiation above 80%; inconclusive means 30% to 80%; inactive means below 30%; also: 0% is about no effect
Target sequence (Q8NER1 whole entry, looked up): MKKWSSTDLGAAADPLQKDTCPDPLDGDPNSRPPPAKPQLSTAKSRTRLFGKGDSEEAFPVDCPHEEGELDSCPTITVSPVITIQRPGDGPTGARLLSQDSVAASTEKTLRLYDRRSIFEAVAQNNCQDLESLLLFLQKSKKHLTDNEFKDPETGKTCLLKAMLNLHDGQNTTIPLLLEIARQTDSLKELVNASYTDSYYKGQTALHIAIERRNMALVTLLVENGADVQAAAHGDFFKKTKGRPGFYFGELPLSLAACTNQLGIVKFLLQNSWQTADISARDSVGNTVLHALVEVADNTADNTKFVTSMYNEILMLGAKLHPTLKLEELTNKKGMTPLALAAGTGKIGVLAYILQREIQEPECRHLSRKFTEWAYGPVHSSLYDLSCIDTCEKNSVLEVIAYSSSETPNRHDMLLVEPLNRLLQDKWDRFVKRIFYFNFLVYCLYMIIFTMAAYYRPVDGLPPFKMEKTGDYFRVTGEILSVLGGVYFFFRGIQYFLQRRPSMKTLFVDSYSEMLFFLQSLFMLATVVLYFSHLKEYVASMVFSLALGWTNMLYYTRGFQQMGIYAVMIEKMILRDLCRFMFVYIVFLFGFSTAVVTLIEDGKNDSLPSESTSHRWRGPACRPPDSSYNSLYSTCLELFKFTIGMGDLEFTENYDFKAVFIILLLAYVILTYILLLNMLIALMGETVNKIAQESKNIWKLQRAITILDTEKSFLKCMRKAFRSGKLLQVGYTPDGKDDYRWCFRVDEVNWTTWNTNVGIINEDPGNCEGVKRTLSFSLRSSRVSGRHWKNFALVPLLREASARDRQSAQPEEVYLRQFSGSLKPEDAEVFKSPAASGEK
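Fluo-8 calcium influx in TRPV1-expressing cells, kinetic read (ex 480/em 520 nm). Compound added and read 3 min for agonist activity, followed by capsaicin at EC20 final and 2 min further read for enhancement.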
Sfp inh: qHTS Assay for Inhibitors of Bacillus subtilis Sfp phosphopantetheinyl transferase (PPTase). Biochemical Sfp PPTase activity, qHTS. 4'-phosphopantetheinyl transferase ffp (Bacillus subtilis), Q9F4F7. Potency, µM, for the others: max response, negative = inhibition, most hits filed as inhibitors. 310,000 compounds, 3.5% hits; active = well fitted inhibition curve with a large enough effect; inconclusive = small, poorly fitted or top-dose-only effect, or another doubt; inactive = no such curve, though single readings can be large or run the other way;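 also: the enzyme is Sfp with the accession as filed and its product quenches rhodamine fluorescence; potency is read from the fitted curve at half-maximal effect; 0% = enzyme reaction without inhibitor and -100% = no enzyme wells; top concentration of the series not given in the record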
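Sfp 15 nM + cpd, 15 min RT; start w/ rhodamine-CoA 5 uM, BHQ-2-YbbR 12.5 uM (final); 50 mM Hepes pH 7.6, 10 mM MgCl2, 0.01% NP-40, 0.01% BSA; read 525/598 nm at 0 and 30 min.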
ClpP mod: qHTS Assay for Activators of ClpP. 340,000 compounds, 1.9% hits. ATP-dependent Clp protease proteolytic subunit (Bacillus subtilis (strain 168)), P80244. AID 651965, 2013. purified B. subtilis ClpP, FRET peptide cleavage, 20 min. Potency, µM (top dose mostly 57.5 µM), for inactives: at the highest dose activity change, negative = active; active = well fitted falling curve with a large enough effect; inconclusive = small, poorly fitted or top-dose-only effect; inactive = no such curve, though single readings can be large or run the other way; also: potency is read from the fitted curve at half-maximal effect; the source files actives as falling curves though it sought activators and does not explain the sign; nearly all actives have a fitted effect of over 65% in size; many hits overshoot -100%
Target sequence (P80244 whole entry, looked up): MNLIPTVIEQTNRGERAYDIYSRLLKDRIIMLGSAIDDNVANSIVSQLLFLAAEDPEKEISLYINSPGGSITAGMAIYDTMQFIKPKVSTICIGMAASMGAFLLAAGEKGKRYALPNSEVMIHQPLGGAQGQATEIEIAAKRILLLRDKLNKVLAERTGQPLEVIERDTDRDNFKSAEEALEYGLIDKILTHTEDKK
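Purified B. subtilis ClpP, 10 microg/mL final in Tris/HCl pH8 with KCl, BSA, glycerol and Tween-20, cleaved an Abz/nitrotyrosine-quenched decapeptide. Fluorescence (ex 320, em 430) was read at 0 and 20 min at room temperature. Delta was normalized to 5.8 microM ADEP and DMSO/no-enzyme controls.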
gsp antag: qHTS for Antagonists of gsp, the Etiologic Mutation Responsible for Fibrous Dysplasia/McCune-Albright Syndrome: qHTS; gsp-mutant cells, cAMP HTRF, 30 min; control for the full effect not named in the record; Potency, µM (titrated, usually from 76.9 µM), for inactives: at the highest dose activity change, negative = inhibition, hits mostly inhibitors; 340,000 compounds, 0.4% hits; AID 624288, 2012; active = falling curve of any shape with a large fitted effect; inconclusive = falling curve, mostly with a smaller effect; inactive = flat or rising curve; cell line not stated here;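 also: intracellular cAMP measured with PDE inhibitor Ro 20-1724 present during compound exposure; potency is read from the fitted curve at half-maximal effect; % is scaled to controls: 0 for no effect and ±100 for the full control effect; nearly all actives have a fitted effect of over 65% in size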
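Cells, 2000/well, grown 16–24 h in DMEM 10% FBS with 0.5 mg/ml G418, then compounds plus […] (300 uM addition stock), 30 min at 37C. cAMP read by HTRF (cAMP-d2 and anti-cAMP antibody-K in lysis buffer) after 30 min RT.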
TRPML1 inh: qHTS for Inhibitors of the Human Mucolipin Transient Receptor Potential 1 (TRPML1) | Mucolipin-1 (Homo sapiens), Q9GZU1 | TRPML1-inducible cells, Ca2+ dye fluorescence, FDSS; hits give low values; inhibition of EC80 agonist-evoked calcium signal | activity change, negative = inhibition, % (concentration not given with the values) | 390,000 compounds, 0.02% hits | AID 624415, 2012; in the data active means activity change below about -50%; inconclusive means about -30% to -50%; inactive means above about -30%;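 also: stimulus is agonist 54-4 at its EC80 concentration; % is scaled to controls: 0 for no effect and ±100 for the full control effect; the text of the record puts the active cut at -80%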
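TRPML1-DL cells, Tet-induced overnight (~16 h, 37 °C) at 1,500 cells/well, were loaded with Ca8 no-wash dye plus quencher for 45-90 min at room temperature. Compounds were pinned during FDSS kinetic reading; agonist 54-4 at EC80 (4 uM final) then added.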
Menin MLL FP FL: qHTS Assay for Inhibitors Targeting the Menin-MLL Interaction in MLL Related Leukemias: Competition With Fluorescein Labeled MLL-derived Peptide. Fluorescence polarization, fluorescein-MLL peptide displacement from menin. FP activity change, % at 61.4 µM. 290,000 tested, under 10 active. AID 1766, 2009; inconclusive = falling polarisation curve, or a change in total fluorescence; inactive = total fluorescence flat and polarisation flat or rising; no compound was filed as active; the % refers to the polarisation; negative = inhibition;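 also: % of control where 0% means no effect; inhibitors lower the polarisation; unlabelled MLL peptide was the positive control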
gsp agonist: qHTS for Agonist of gsp, the Etiologic Mutation Responsible for Fibrous Dysplasia/McCune-Albright Syndrome: qHTS; gsp mutant cells, cAMP HTRF, 30 min; control for the full effect not named in the record; Potency, µM (series often up to 76.9 µM), inactives show at the top dose activation (cAMP increase), most hits filed as activators; 340,000 compounds, 0.13% hits; active = well fitted activation curve with a large enough effect; inconclusive = small, poorly fitted or top-dose-only effect, or another doubt; inactive = no such curve, though single readings can be large or run the other way; cell line not stated here;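 also: phosphodiesterase inhibitor Ro 20-1724 added with compounds to block cAMP breakdown; potency is read from the fitted curve at half-maximal effect; nearly all actives have a fitted effect of over 60% in size; about a fifth of the inactives were tested at one dose only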
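Cells in DMEM/10% FBS with G418 were pretreated with compounds in DMSO plus […] (300 uM stock) for 30 min at 37C. cAMP was measured by HTRF (cAMP-d2 plus anti-cAMP antibody-K) after 30 min at room temperature.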
The depositor's hits bear a star; ? = inconclusive; · = no result given; & = joins results of further samples; ! = a repeat was not active; [ ] = dose if it differs, or a comment.

mol,Sfp inh,Menin MLL FP FL,gsp agonist,ClpP mod,gsp antag,TRPML1 inh,TRPV1 PAM
COc1ccc(NC(=O)CN(C)C(=O)c2c(C)nn(Cc3ccccc3)c2C)cc1,·,·,14%[15.4 µM],1.7%,6%,11,-2
CN(C(=O)COC(=O)c1c[nH]c2ccccc12)c1ccccc1,·,·,-2%,0.6%,·,13,·
Cc1ccc(-n2nc(C)cc2N)c(C)c1,-6%,-0.7,-6%[15.4 µM],·,6%,3,-2
Cc1nc([N+](=O)[O-])c(Br)n1CC(=O)c1ccccc1,19%,7.4,-2%,-3.1%,-8%,13,-4
CCc1cc2c(SCC(=O)NC(=O)c3cccn3C)ncnc2s1,13%,4.3,-3%[15.4 µM],·,-5%,7,-2
O=C1N/C(=C\c2ccsc2)C(=O)N1Cc1ccc(F)cc1,7%,7.9,12%,-5.4%,6%,4,4
O=C(COC(=O)CNC(=O)c1ccc(Br)o1)Nc1ccc2c(c1)OCCO2,16%,2.0,-114%[inhibitor],-0.8%,50µM*,6,-19
CC1(C)CC(=O)C2=C(C1)Nc1ccccc1NC2c1nc2ccccc2[nH]1 (centres undefined),5%,-15,28%,0.3%,-4%,1,·
Cc1ccc(CNC(=O)CCSCCC(=O)NCc2ccc(C)cc2)cc1,22%,1.1,-8%,0.6%,7%,12,3
Nc1nc(SCC(=O)Nc2cccc(F)c2)n[nH]1,·,·,-15%,1.7%,1%,0,·
COc1ccccc1CNC(=O)CC(C)c1ccccc1 (centres undefined),5%,0.6,17%,-0.4%,3%,1,17
Cc1ccc(C2=NN(C(=O)c3ccccc3F)C(c3ccccc3F)C2)cc1 (centres undefined),50µM*,·,-6%[15.4 µM],0.0%,-25%,5,7

mol,Sfp inh,Menin MLL FP FL,gsp agonist,ClpP mod,gsp antag,TRPML1 inh,TRPV1 PAM
Cc1ccc(S(=O)(=O)N2CN(Cc3ccco3)c3nc4ccccc4nc32)cc1C,40µM*,?,-22%,-17%,-9%,2,9
O=C(c1ccc(CS(=O)(=O)c2ccc(Br)cc2)o1)N1CCN(c2ccc(F)cc2)CC1,-3%,·,?,-0.6%&-3.9%,-14%,-17&4,29
N#C/C(=C\c1ccccc1)C(=O)Nc1nncs1,-6%,-7.0,-9%[15.4 µM],·,5%,-12,-17
COC(=O)c1cccc(NC(=S)NCc2ccc(F)cc2)c1,3%,-0.4,-1%[15.4 µM],·,3%,-1,-6
COc1ccccc1OCCn1c(=S)[nH]c2ccccc21,-13%,-0.4,-1%[15.4 µM],0.9%,-16%,4,13
CCN1C(=O)[C@H]2[C@@H](c3ccc(C)cc3)N3C(=O)N(c4ccccc4)C(=O)[C@@]3(C)[C@H]2C1=O,14%,5.4,-26%,-2.6%,3%,11,-2
CCOC(=O)CC(NC(=O)c1cc2cccc(OC)c2oc1=O)c1ccc(OC)cc1 (centres undefined),6%,-9.9,8%,-2.5%,5%,-9,13
Cc1ccc(CNC(=O)Nc2ccc(C)cc2)cc1,-14%,13,-30%,1.2%,13%,11,-18
COCCn1c(=O)[nH]c2cc(C(=O)N3CCN(c4ccccc4OC)CC3)ccc2c1=O,14%,0.8,5%,-7.6%,4%,-6,0
CCC(C)NC(=O)CN(C1CCCCC1)S(=O)(=O)c1ccc(F)cc1 (centres undefined),11%,·,-1%,?,2%,2,-18
C=CCn1c(SCC(=O)N2CCOCC2)nc2scc(-c3ccco3)c2c1=O,2.8µM*,?,9%,-7.7%,-7%,11,2
Cc1ccc(-c2nn3c(C)nnc3c3ccccc23)cc1S(=O)(=O)NC(C)c1ccccc1 (centres undefined),-7%,-0.2,-12%,-10%,22%,11,-1

mol,Sfp inh,Menin MLL FP FL,gsp agonist,ClpP mod,gsp antag,TRPML1 inh,TRPV1 PAM
CCOC(=O)CCCNC(=O)COC(=O)c1cccc(C)c1O,1%,0.5,-15%,8.4%,7%,6,-17
Cc1nc2c(n1O)CCC/C2=N\O,-5%,2.1,11%,-12%,7%,6,5
Cc1cnc(C)c(N2CCC(C(=O)NCc3ccco3)CC2)n1,7%,-1.9,-24%,1.7%,8%,-2,6
O=C(Cn1cc(C(F)(F)F)cc(Cl)c1=O)Nc1cc(Cl)cc(Cl)c1,4%,1.9,28%,-20%,2%,-10,-6
O=c1c(Cl)c(Cl)cnn1-c1ccccc1,14%,1.6,15%,1.6%,-19%,12,1
COc1ccccc1NC(=S)NC(NC(=O)C(C)C)C(Cl)(Cl)Cl (centres undefined),-8%,-4.0,13%[15.4 µM],·,9%,13,-16
COc1ccc(Oc2c(Cl)cnn(-c3ccc(C)cc3)c2=O)cc1,8%,-1.2,-39%[inhibitor],-22%,?,-1,-20
CC(C)(C)NC(=S)NCc1ccncc1,4%,-4.3,0%,·,9%,17,4
COc1cccc(C(=O)NCCS(=O)(=O)N(C)Cc2ccccc2)c1,·,·,8%,-0.8%,-3%,-5,-8
O=C1C2C3c4ccccc4C(c4ccccc43)C2C(=O)N1Cc1ccccn1 (centres undefined),25%,-1.4,10%,·,1%,5,-5
CC(=O)Nc1cccc(C(=O)OCc2ccccc2)c1,1%,-0.3,11%,-2.1%,7%,-5,?
CCCc1cc(C(=O)OCC(=O)N2CCN(c3ccc(OC)cc3)CC2)sc1C,·,·,-32%[inhibitor],-1.5%,?,-5,-19

mol,Sfp inh,Menin MLL FP FL,gsp agonist,ClpP mod,gsp antag,TRPML1 inh,TRPV1 PAM
COc1ccc(Cl)cc1Nc1nc(-c2sc(NC(=O)C(C)(C)C)nc2C)cs1,-10%,-2.0,-5%,-9.2%,4%,-8,-3
Cc1ccc(C(c2nnnn2C2CCCC2)N2CCN3CCCC3C2)cc1 (centres undefined),24%,0.9,10%,0.5%,-1%,6,-2
O=[N+]([O-])c1ccc(-c2ccc(/C=N/Nc3nc(N4CCCC4)nc(N4CCCC4)n3)o2)cc1,18%,?,3%,·,-10%,-4,-11
Cc1cc(N/N=C/c2ccc(O)c(C)c2O)nc(-c2ccccc2O)n1,-10%,1.6,?,-2.8%,-21%,-3,-12
COc1ccc(Br)c(C(=O)OCC(=O)Nc2cc(C)on2)c1,·,·,28%,0.1%,·,17,·
Cc1ccc(-c2csc(NC(=O)CCNC(=O)c3ccco3)n2)cc1,14%,-1.5,-11%[15.4 µM],·,-4%,0,15
Cc1ccc(C)c(S(=O)(=O)N2CCN(C(=O)c3ccnn3C)CC2)c1,11%,·,-79%[inhibitor],-0.5%,9%,26,1
CCc1nnc(NC(=O)CSc2nnc(COc3ccc(C#N)cc3)n2-c2ccccc2)s1,17%,1.3,-6%,-1.8%,0%,-1,7
COc1ccc(S(=O)(=O)Nc2ccc(N3CCOCC3)nc2)cc1,-1%,-5.8,-2%[15.4 µM],·,-11%,6,5
CC(C)Oc1ccc(C2CC(=O)N(c3cccc(C(=O)O)c3)C2=O)cc1 (centres undefined),-3%,4.8,16%,-1.8%,-14%,-13,9
c1ccc2c(c1)CCCN2Cc1nnnn1CC1CCCO1 (centres undefined),8%,?,18%,-4.1%,-4%,9,7
COc1ccc(-c2csc(NNC3=NCCCCC3)n2)cc1,13µM*,-2.4,-4%[15.4 µM],·,0%,10,13

mol,Sfp inh,Menin MLL FP FL,gsp agonist,ClpP mod,gsp antag,TRPML1 inh,TRPV1 PAM
CCC(c1nnnn1Cc1ccc(F)cc1)N(CCCO)Cc1cc2cc3c(cc2[nH]c1=O)OCO3 (centres undefined),0%,-0.9,4%,32µM*,0%,-4,4
Cc1ccc(N2C(=O)CC(Sc3nc(C)cc(C)n3)C2=O)cc1 (centres undefined),10%,1.3,4%,-2.7%,2%,-1,-2
Cc1nnc(SCc2cc(=O)[nH]c(N3CCN(Cc4ccccc4)CC3)n2)s1,5%,0.1,0%,-2.8%,-8%,22,1
CC1CN(c2ccc([N+](=O)[O-])cc2C(=O)N2CCOCC2)CC(C)N1 (centres undefined),-4%,15,-16%,-1.2%,4%,-2,-1
O=C(Cc1cccs1)N=Nc1c(O)[nH]c2ccccc12,-10%,1.5,0%,0.9%,?,-10,30
Cc1n[nH]c(=O)n1-c1ccc(OC(F)(F)F)cc1,-4%,0.0,24%,·,6%,13,-17
Cc1cc(NC(=O)C(C)SCC(=O)Nc2ccc(SC(F)F)cc2)no1 (centres undefined),0%,·,-12%,-0.5%,5%,11,3
CN(C)c1ccc(NC(=O)CC2NCCNC2=O)cc1 (centres undefined),4%,5.2,0%,-0.5%,-15%,-4,-10
C[n+]1cc2c3c(ccc2c2ccc4cc5c(cc4c21)OCO5)OCO3,8.9µM*!,-3.7,·,4.0%[115 µM],·,-5&-1,0&23
CC1CCC(C(C)C)C(OCC(O)CN2CCN(Cc3ccccc3)CC2)C1 (centres undefined),3%,2.8,13%,-3.1%,3%,-3,-27
O=c1[nH]cccc1-c1nc2ccccc2n1Cc1ccccc1F,-9%,-11,2%,4.3%,3%,8,5
CCn1ccnc1CN(C)Cc1nc(Cc2cccc(C(F)(F)F)c2)no1,3%,0.0,3%[15.4 µM],·,9%,-10,-25
CCN(CC)S(=O)(=O)c1cccc(C(=O)N/N=C(\C)c2cccs2)c1,0%,-1.8,-23%,·,6%,3,-12
CCCOc1ccc(C(=O)CCNC(Cc2c[nH]c3ccccc23)C(=O)O)cc1 (centres undefined),?,1.9,?,2.8%,4%,-10,6

Source: PubChem BioAssay
